Compound activity as filed in PubChem.
NPYLR7 agonist = agonists of mosquito NPYLR7 receptor, primary screen, cell-based, Aedes aegypti, calcium fluorescence, mosquito biting behavior; Aedes aegypti neuropeptide Y-like receptor 7 (NPYLR7); HEK293T NPYLR7/Galpha15, GCaMP6s calcium fluorescence; activation, % at 10 µM; 0.15% of 270,000 active; AID 1259423, 2018; in the data active = activation above about 40%;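 note: 0% = vehicle and 100% = reference agonist at the receptor; some compounds past the cut are filed as inactive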
NPYLR7 agonist max-min = further read-out of NPYLR7 agonist, marked with its call; activation, %; measured here: Max-Min RFU normalised activation; some inactives read as strong as hits;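 span of the calcium signal over five minutes; 0% = vehicle and 100% = native peptide agonist; compound fluorescence can raise it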
Numbers without * were called inactive; & = joins results of further samples.

SMILES | NPYLR7 agonist | NPYLR7 agonist max-min
CCOC(=O)CCNC(=O)C1=CN2CCNC(=O)N=C2O1 | 1 | -1
CC(C)(C)n1c(-c2ccc(S(=O)(=O)N3CCCC3)cc2)csc1=Nc1ccccc1 | 0 | 5
COCCN1CC(Nc2nc(-c3cccnc3)nc3c2CCNC3)CC1=O (stereo unspecified) | -4 | -11
Cc1cc(C)c(C)c(S(=O)(=O)N2CCC(C(=O)N3CCCC3c3cccnc3)CC2)c1C (stereo unspecified) | -1 | -2
Cc1csc(=Nc2ccc3ccccc3c2)n1CC(=O)NC(C)C | 0 | 0
CN1C(=O)C(=O)N(CC(=O)NCC(F)(F)F)C1=O | 3 | 9
Cc1ccc(-c2ccc(CCC(=O)NCCN3CCCC3)n2-c2ccc(CC#N)cc2)c(C)c1 | 1 | -1
O=C1CN(C(=O)c2csc3c2CCCC3)CC(OCc2ccccn2)CN1Cc1ccccc1 (stereo unspecified) | 17 | 5
O=C(Cc1ccc(Cl)cc1)Oc1coc(CSc2ncccn2)cc1=O | -13 | -13
Cc1nonc1CN(C)C(=O)c1cc2n(n1)CCN(Cc1ccccc1)C2 | 10 | 9
CC(c1nccs1)N(C)C(=O)Cn1c(=O)oc2ccccc21 (stereo unspecified) | 14 | 1
O=S(=O)(c1ccc(F)cc1Cl)N1CCN(c2nccc(-c3ccc4c(c3)OCO4)n2)CC1 | -3 | 2
c1csc(CCCc2nc(C3CC3)n[nH]2)c1 | 2 | 9
COc1cccc(C2c3c(oc4cc(C)c(C)cc4c3=O)C(=O)N2c2nccs2)c1OC (stereo unspecified) | 7 | 3
Cc1ccc(S(=O)(=O)N2CCC(Cc3ccc(-c4ccccc4)cc3)CC2)cc1 | 2 | 0
O=S(=O)(Nc1cccc(-c2ccc3nnc(-c4ccncc4)n3n2)c1)c1cccs1 | -13 | -12
CCCCN(C(=O)Nc1ccc(C(F)(F)F)cc1)C(CC)c1nc2ccccc2c(=O)n1-c1ccc(OCC)cc1 (stereo unspecified) | -10 | -13
Cc1ccc(NC(=O)Nc2c[nH]c3ccccc23)cc1C | -2 | -7
Cc1ccccc1C(=O)NCC(=O)NC(C)c1ccc(F)c(Cl)c1 (stereo unspecified) | -6 | -5
Nc1cc(-c2cccc(Cl)c2)nn1-c1ccc(C(=O)Nc2ccccc2)cc1 | -5 | -8
OCc1ccc(-c2ccc3ccccc3n2)cc1 | 0 | 9
Cc1cccc(-n2c(CNC(=O)c3cccs3)nnc2SCC(=O)N2CCc3ccccc32)c1 | -14 | -3
Cc1cccc(CN(C(=O)CCC(C)N2CCN(C)CC2)C(C)C)c1 (stereo unspecified) | 4 | 2
CCn1ncc(CN(C)C(=O)c2cc(Cn3cnc4ccccc43)[nH]n2)c1C | 6 | -9
O=C(NC1C[C@@H]1c1ccccc1)c1cncn1-c1ccc(-c2ccc(F)c(F)c2)cc1 (stereo partly specified) | 6 | 4
CC(C)C[C@@H](N)C(=O)N1CCC(CCn2cccn2)CC1 | 0 | 12
CC(C)CS(=O)(=O)NC(=O)CCOc1ccccc1 | 11 | 3
O=c1[nH]cnc2c1c(-c1ccccc1)cn2-c1cccc(Cl)c1 | -8 | -13
O=C(CN1CCN(S(=O)(=O)c2cc(Cl)ccc2Cl)CC1)NC1CCCCCC1 | -5 | -6
Cc1nn(-c2ccccc2)c2c1C(c1ccco1)C(C#N)C(=N)O2 (stereo unspecified) | -6 | -6
CCCCCCn1c(SCC(N)=O)nc2c1c(=O)[nH]c(=O)n2C | 15 | 8
O=C1CN(C(=O)CN2CCCN(Cc3cccs3)CC2)CCN1 | 0 | -1
COCCn1cc(C(=O)Nc2nnc(C(C)C)s2)c2nn(-c3ccccc3)c(=O)c-2c1 | 4 | 2
O=C(COc1coc(CN2CCN(C(=O)c3ccco3)CC2)cc1=O)Nc1ccccc1 | 4 | 2
Cc1cc(C)c(NC(=O)COC(=O)C(O)c2ccccc2)c(C)c1 (stereo unspecified) | -4 | -5
CCN1CCN(C(C)CNCc2c(C)nn(-c3ccc(F)cc3F)c2C)CC1 (stereo unspecified) | 8 | 4
COC(=O)C1CSCN1S(C)(=O)=O (stereo unspecified) | -6 | -5
CCOCCCN(CC(=O)c1c(C)c(C(=O)OCC)n(CC)c1C)C(=O)COCc1ccccc1 | -5 | 3
Cc1nn(C)c(C)c1C(C)C(=O)N(CC1CCOC1)c1ccccc1 (stereo unspecified) | -2 | -4
CCNC(=O)N1c2ccc(CC)cc2C(C)=CC1(C)C | 2 | 1
O=C(CN(CC1CCCO1)C(=O)C1C[C@H]1c1ccccc1)N(Cc1ccc(F)cc1)Cc1ccco1 (stereo partly specified) | -4 | -1
COCCc1noc(C2CC2c2ccc(C)s2)n1 (stereo unspecified) | -2 | -4
Cc1cccc2cc(C(=O)NCc3cccnc3N3CCCC(O)C3)oc12 (stereo unspecified) | 2 | 2
CNC(=S)N1C(=Nc2ccc(C)cc2C)SCC1(C)C | 2 | 2
CC1=C(C(=O)N2CCCC(Nc3ccc(C(C)C)cc3)C2)OCCO1 (stereo unspecified) | 5&4 | 5&-2

Profiles from above. Order of screens: NPYLR7 agonist, NPYLR7 agonist max-min
CCOCCCN(CC(=O)c1c(C)c(C(=O)OCC)n(CC)c1C)C(=O)COCc1ccccc1 in the list: -5, 3
CCNC(=O)N1c2ccc(CC)cc2C(C)=CC1(C)C in the list: 2, 1
COC(=O)C1CSCN1S(C)(=O)=O (stereo unspecified) in the list: -6, -5

Later entries:
SMILES | NPYLR7 agonist | NPYLR7 agonist max-min
CC1C(=O)N(c2ccc(F)cc2)CCN1C(=O)CCc1ccccc1 (stereo unspecified) | -4 | -3
O=C(c1ccc(N2CCC(NCC3(N4CCOCC4)CCCC3)CC2)cc1)N1CCCC(O)C1 (stereo unspecified) | 5 | 5
O=C(Nc1cccc(C(F)(F)F)c1)N1CCCN(c2nc(Cc3ccccc3)nc3onc(-c4ccccc4)c23)CC1 | 17 | 5
CC(C)c1ccc(N2CCN(CC(=O)N3CCN(S(C)(=O)=O)CC3)C2=O)cc1 | 9 | 6
Cn1cccc1C(CNC(=O)C1CC1)N1CCc2ccccc2C1 (stereo unspecified) | 0 | -1
COc1cccc(Nc2cc(C3(C(=O)NCC4CCCO4)CC3)ccn2)c1 (stereo unspecified) | -7 | -3
COc1ccc(/C=N\Nc2nnc(C(C)(C)C)c(=O)[nH]2)cc1O | -2 | -4
CCCCOC(=O)c1ccccc1NC(=O)N1CCC[C@H]1C(=O)N1CCC(C(=O)Nc2ccc(OC)cc2)CC1 | 6 | 9
CN(C)c1cccc(C(=O)NCCc2ccc3c(c2)OCCO3)c1 | 6 | 1
CCOC(=O)C1=C(C)N=c2s/c(=C/c3ccco3)c(=O)n2C1c1cccs1 (stereo unspecified) | -10 | -20
CNC(=O)COC(=O)C12CC3CC(CC(Br)(C3)C1)C2 | 8 | 7
COC(=O)[C@]1(C)N[C@H](c2csc(-c3ccccc3)n2)[C@@H]2C(=O)N(C)C(=O)[C@@H]21 | 1 | -4
Cc1nc(CCN(C)C(=O)CCNC(=O)c2ccccc2F)no1 | -3 | -3
O=C1CCN(C2CCN(Cc3nc(COc4ccccc4)no3)CC2)CCN1 | 5 | 1
COc1cccc2ccc(CN3CCCN(C)C4(CCN(C)CC4)C3)nc12 | -18 | -17
COc1ccc(-c2nc3ccc(Br)cn3c2NC(C)(C)CC(C)(C)C)cc1OC | -7 | -1
CC1CCN(c2nnc(SC(C)C(=O)NC(C)C)n2CC2CCCO2)CC1 (stereo unspecified) | 8 | 5
O=C(OCc1ccccc1)c1ccc(F)cc1Cl | 8 | 7
CCOc1ccc(NS(=O)(=O)c2ccc3ccccc3c2)cc1 | 0 | -1
O=C(NCc1nc2ccccc2n1CCCOc1ccccc1)c1ccco1 | -2 | 4
CC(C)C(=O)Nc1ccc(OCC(F)(F)F)c(C#N)c1 | 1 | 2
COc1ccccc1N1CCN(c2ccc(NC(=O)C(Cl)c3ccccc3)cc2C(=O)NCc2ccccc2)CC1 (stereo unspecified) | 7 | 5
Nc1nc(-c2ccc(F)cc2F)cs1 | -6 | 14
CC[S+](CC)C1C(=O)NC(=O)N(c2ccccc2F)C1=O (stereo unspecified) | 17 | 7
COc1cc2c(cc1C1CC(=O)Nc3[nH]ncc31)CCC2 (stereo unspecified) | 3 | 0
CCNC(=O)NC(=O)CN1CCN(Cc2ccc(C(F)(F)F)cc2)CC1 | 6 | 5
COc1c[nH]c(C(=O)Nc2ccc(F)c(Cl)c2)cc1=O | 0 | -4
C=CCOC1CCCN(C(=O)Nc2ccccc2)C1 (stereo unspecified) | 1 | 3
CCn1nc(-c2ccc(C)cc2)ccc1=O | 9 | 2
O=C(O)c1cnc(-n2cccn2)cn1 | 11 | 7
Cc1cc(NC(=O)c2ccc(C(F)(F)F)nc2)no1 | 0 | -2
OCCc1ccccc1-n1ccnc1-c1ccc(-c2ccn[nH]2)o1 | 14 | 6
COc1ccc(OCC(O)CN(Cc2ccccc2Cl)C(C)C)cc1 (stereo unspecified) | -7 | 4
CCCc1nnc(-c2cc3ccccc3[nH]2)o1 | -3 | -4
OC(c1ccccc1)c1cn(C2CCN(Cc3cnc4ccccc4c3)CC2)nn1 (stereo unspecified) | -13 | -19
O=C(c1ccc(-c2ncn[nH]2)cc1)N1CCOC(C(F)(F)F)C1 (stereo unspecified) | 8 | 0
CC(C)(O)C#Cc1ccc(C(=O)N2CCCC(C(=O)c3cccc(C(F)(F)F)c3)C2)cc1 (stereo unspecified) | 14&1 | 2&-2
CCc1nc2ccc(C(=O)NCCc3c[nH]c4ccccc34)cn2c1N(CCN(C)C)CC1CC1 | -6 | -9
O=C(Nc1ccccc1)Oc1cc2oc(=O)sc2cc1Cl | 8 | 5
Cc1cncc(C(=O)NC2CC(=O)N(Cc3cccc4ccccc34)C2)c1 (stereo unspecified) | 5 | 4
CC(=O)Nc1ccc(S(=O)(=O)N2CCC(Cc3ccc(C(F)(F)F)cc3)CC2)cc1 | 2 | 4
Cc1cc(Nc2ccccc2)nc(N2CCN(C(=O)c3ccccc3)CC2)n1 | 4 | -1
COc1ccc(-c2noc(-c3ccc(N4CCC[C@H]4CO)nc3)n2)cc1 | 3 | 0
CC(=O)c1ccc(Cl)c(Cl)c1OCCn1cncn1 | -2 | -2
CNC(=O)CSc1n[nH]c(COc2ccccc2C)n1 | -5 | -7
COc1ccc(Oc2ccc(S(=O)(=O)C(F)(F)F)cc2[N+](=O)[O-])c([N+](=O)[O-])c1 | -2 | -1
COC(=O)C(CCN1CCCCC1)NC(=O)COC1CCCCC1C (stereo unspecified) | 14 | 25
Cc1cc(C)cc(Nc2ncnc(N)c2[N+](=O)[O-])c1 | 0 | -2
Cc1nc(N2CCCC2C(=O)N(C)Cc2nc3ccccc3[nH]2)nc2ccc(F)cc12 (stereo unspecified) | 16 | 12
Cc1nc(CCNC(=O)c2cn[nH]n2)nc2c1CCCC2 | 23 | 8
C[C@H]1O[C@@H](O[C@H]2[C@@H](O)C[C@H](O[C@H]3[C@@H](O)C[C@H](O[C@H]4CC[C@@]5(C)[C@H](CC[C@@H]6[C@@H]5C[C@@H](O)[C@]5(C)C(C7=CC(=O)OC7)CC[C@]65O)C4)O[C@@H]3C)O[C@@H]2C)C[C@H](O)[C@@H]1O (stereo partly specified) | -11 | -15
CN(C)C(CNC(=O)CCc1ccccc1)c1ccsc1 (stereo unspecified) | 8 | 4
COc1cccc(C2CC(c3ccc(NS(C)(=O)=O)cc3)=NN2C(=O)c2ccco2)c1O (stereo unspecified) | 10 | 13
CC(C)(C)NC(=O)N1CCN(C(C(=O)N2CCc3ccccc3C2)C2CCCC2)CC1 (stereo unspecified) | -3 | 0

In the list so far, 15 have an NH in an aromatic ring.
SMILES | NPYLR7 agonist | NPYLR7 agonist max-min
c1csc(CCCc2nc(C3CC3)n[nH]2)c1 | 2 | 9
Cc1ccc(NC(=O)Nc2c[nH]c3ccccc23)cc1C | -2 | -7
CCn1ncc(CN(C)C(=O)c2cc(Cn3cnc4ccccc43)[nH]n2)c1C | 6 | -9
O=c1[nH]cnc2c1c(-c1ccccc1)cn2-c1cccc(Cl)c1 | -8 | -13
CCCCCCn1c(SCC(N)=O)nc2c1c(=O)[nH]c(=O)n2C | 15 | 8
COc1ccc(/C=N\Nc2nnc(C(C)(C)C)c(=O)[nH]2)cc1O | -2 | -4
COc1cc2c(cc1C1CC(=O)Nc3[nH]ncc31)CCC2 (stereo unspecified) | 3 | 0
COc1c[nH]c(C(=O)Nc2ccc(F)c(Cl)c2)cc1=O | 0 | -4
OCCc1ccccc1-n1ccnc1-c1ccc(-c2ccn[nH]2)o1 | 14 | 6
CCCc1nnc(-c2cc3ccccc3[nH]2)o1 | -3 | -4
O=C(c1ccc(-c2ncn[nH]2)cc1)N1CCOC(C(F)(F)F)C1 (stereo unspecified) | 8 | 0
CCc1nc2ccc(C(=O)NCCc3c[nH]c4ccccc34)cn2c1N(CCN(C)C)CC1CC1 | -6 | -9
CNC(=O)CSc1n[nH]c(COc2ccccc2C)n1 | -5 | -7
Cc1nc(N2CCCC2C(=O)N(C)Cc2nc3ccccc3[nH]2)nc2ccc(F)cc12 (stereo unspecified) | 16 | 12
Cc1nc(CCNC(=O)c2cn[nH]n2)nc2c1CCCC2 | 23 | 8

These rows are one share of the data, so the mix of outcomes need not match the whole.
